# Screens as filed in PubChem.
# Env fusion inh: blocks HIV Env-driven cell-cell fusion; inhibition, % at 12.3 µM; 360,000 compounds, 1.1% hits; HeLa-JRFL Env/CEM21 cell fusion, luciferase; AID 651610;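 active means mean replicate inhibition score of at least 50 and every replicate individually at or above 50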;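 further: 0% = plate neutral controls and 100% = maraviroc near 300 nM; one replicate is shown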
# eIF4H FP inh: inhibitors of RNA binding by human eIF4H; inhibition, % at 35 µM; 290,000 compounds, 0.94% hits; eIF4H fluorescence polarization binding assay;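 active means 50% or more with normal probe brightness, or confirmed in later tests; about a fifth of its hits are not listed in these tables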;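 further: calls also rest on retests at 20 µM and on dose response follow-up; 0% = protein and probe with vehicle and 100% = probe without protein; strong numbers were not always called active; many hits fall short of the cut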
# PABP FP inh: blocks human PABP binding to poly(A) RNA | P11940 | fluorescence polarization | inhibition, % at 35 µM | 290,000 compounds, 1% hits | AID 2014;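 active means 50% or more with normal probe brightness, or confirmed in later tests; about a fifth of its hits are not listed in these tables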;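 further: calls also rest on retests at 20 µM and on dose response follow-up; controls were probe without protein and protein plus probe with vehicle; some compounds called inactive have numbers as strong as hits; many hits fall short of the cut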
# Rce1 inhib: inhibitors of yeast Ras-converting enzyme; 290,000 compounds, 0.27% hits; AID 2563; Q03530; calls only; yeast membranes, quenched prenylated peptide cleavage fluorescence;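 active means fall in fluorescence gain of 50% or more versus controls, with final raw signal at or below 3038400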;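 further: plate controls were neutral control wells for no effect and wells lacking membranes for full effect; tested at 10 µM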
# Target sequence (Q03530 whole entry, looked up): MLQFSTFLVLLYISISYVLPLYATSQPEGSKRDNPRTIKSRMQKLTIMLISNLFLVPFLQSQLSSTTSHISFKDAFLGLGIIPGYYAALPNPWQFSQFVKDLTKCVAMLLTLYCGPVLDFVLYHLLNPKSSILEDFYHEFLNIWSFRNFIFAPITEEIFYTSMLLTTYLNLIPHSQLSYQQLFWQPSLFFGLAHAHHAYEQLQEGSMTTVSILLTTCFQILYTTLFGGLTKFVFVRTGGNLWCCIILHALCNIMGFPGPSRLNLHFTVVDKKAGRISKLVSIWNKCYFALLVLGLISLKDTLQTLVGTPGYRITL
# MT1-MMP act inh: inhibitors of human MT1-MMP activation; P50281; HT1080 RFP-PRO-GFP cells, GFP/RFP ratio fluorescence, overnight; percent of plate control window, DMSO zero; GFP/RFP ratio change, % at 20 µM; 360,000 compounds, 0.061% hits; AID 651647;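 active means GFP/RFP ratio change of at least 30% with cell ATP level not reduced by more than half and red fluorescence within 50% of control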; further: strong numbers were not always called active
#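 Assay system: HT1080 RFP-PRO-GFP cells | Dosing: 20 µM single dose, 1% DMSO | Incubation: Cells overnight before dosing, compound overnight, 37 °C, 5% CO2 | Evaluation: GFP/RFP fluorescence ratio | Control set: DMSO-only wells and HT1080 RFP-L50D-GFP cell wells as references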
# CSC inhib: blocks cancer stem cells; cancer stem cell-like cells viability, luminescence; inhibition, % at 7.5 µM; 300,000 compounds, 1.1% hits;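 active means mean at 75% or more and at least half the replicates too; tested in HMLE shEcad cells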;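 further: 0% = median of negative and 100% = median of positive control wells; the first replicate is given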
# Yeast UUG start: alters start codon recognition fidelity in yeast | activity score, % at 18.7 µM | S. cerevisiae UUG-firefly luciferase reporter, luminescence/redox ratio | 350,000 compounds, 0.13% hits;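 active means replicate mean at a twofold rise or more, about +100% in these data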;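 further: firefly luciferase made from a UUG start codon reports start codon fidelity; reporter light over untreated wells divided by growth signal over untreated wells; some hits fall short of that in this replicate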
# eIF4H FP inh retest: recorded beside eIF4H FP inh, whose call it bears; inhibition, %; compound at 20 µM; confirmation average;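 mean of two retest wells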
# PABP FP inh retest: second read-out of PABP FP inh, no call of its own (marks repeat the call); inhibition, %; compound at 20 µM; confirmation repeats;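 mean of two retest wells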
# MT1-MMP act inh RFP: recorded beside MT1-MMP act inh, whose call it bears; RFP signal change, %; measured here: RFP expression control read;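 0 = vehicle wells; hits needed this value within 50% of zero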
# Numbers without * were called inactive; i = inactive; nt = no result given.
SMILES,Env fusion inh,eIF4H FP inh,PABP FP inh,Rce1 inhib,MT1-MMP act inh,MT1-MMP act inh RFP,CSC inhib,Yeast UUG start,others
COCCNc1oc(Cc2cccc3ccccc23)nc1C#N,5,6,1,i,0,-1,-16,-12,
CC1=CC(C)(C)n2c(O)c(N=NC(N)=S)c3cccc1c32,7,0,-1,i,3,0,-9,nt,
CCOC(=O)C1CCN(S(=O)(=O)c2ccc(OCC)cc2)CC1,nt,-10,-7,i,3,-9,-4,1,
CC1=NN(C(N)=S)C(=O)C1N=Nc1cccc(Cl)c1C (stereo not given),-234,6,1,i,7,-3,35,-15,
C/C(=N/NC(=O)c1ccco1)c1ccc(NC(=O)c2ccc(F)cc2)cc1,-32,2,3,i,4,3,0,nt,
CCCCCCc1cc2cc(C(=O)Nc3ccccc3OC)c(=O)oc2cc1O,2,6,5,i,-16,-16,19,-20,
COCCNC(=O)C1CC(=O)N(c2ccc(F)c(Cl)c2)C1 (stereo not given),-11,nt,nt,i,3,8,nt,-33,
CC1(C)CC(=O)C=C(c2cccc(O)c2)C1,10,nt,nt,nt,-3,0,-10,-19,
CC1(C(=O)NS(=O)(=O)c2ccc(Cl)cc2)CCN1C(=O)Cc1cccs1 (stereo not given),-7,nt,nt,nt,4,1,nt,8,
Cc1c(NS(=O)(=O)c2cc(C(=O)NCCN(C)C)ccc2Cl)c(=O)n(-c2ccccc2)n1C,5,38,18,i,-3,2,-5,-14,
COc1ccc(S(=O)(=O)Nc2cccc(NC(C)=O)c2)cc1,-7,-1,6,i,14,-1,-9,-9,
O=C(NC(Cc1ccccc1)C(=O)O)/C(=C/c1ccc(F)cc1)NC(=O)c1ccccc1 (stereo not given),1,-4,-2,i,1,7,-11,-11,
CS(=O)(=O)N1CCN(c2ccccc2NC(=O)Nc2cccc(Cl)c2)CC1,10,-12,12,i,-1,-3,-9,-4,
Cc1cc(NC(=O)c2ccc(NC(=O)C3CCCO3)cc2)ccc1Br (stereo not given),-9,-8,-8,i,2,-28,11,-10,
CCOC(=O)CN1C(=O)N[C@@H](CCc2ccccc2)C(C(C)=O)=C1C,24,nt,nt,i,nt,nt,-1,nt,
CC(C)C(OC(=O)c1cccs1)C(=O)NC1CCCCC1 (stereo not given),-22,-1,0,i,-3,-9,-2,-6,
CCC12CC3CC(C1)CC(C(=O)Nc1nn[nH]n1)(C3)C2,-18,-3,2,i,6,-2,2,-8,
Clc1ccc2nc(CSc3ncn[nH]3)cn2c1,1,-5,-11,i,2,3,-6,-21,
CCN(c1ccccc1)S(=O)(=O)c1cc(NC(=O)CSc2n[nH]c(=O)[nH]c2=O)ccc1Cl,9,4,2,i,-1,-3,nt,nt,
O=C(c1cc(-c2ccccc2)nc2ccccc12)N1N=C(C(F)F)CC1(O)C(F)F (stereo not given),nt,-3,6,i,3,0,0,-14,
Cc1ccc(CN2CCSc3sccc3C2=O)cc1,8,-5,4,i,0,2,7,nt,
CN(C)/C=C1\Oc2ccc3ccccc3c2C1=O,7,-5,-10,i,2,4,0,nt,
COc1ccccc1CNC(=O)C(NS(=O)(=O)c1cccc2nsnc12)C(C)C (stereo not given),25,1,-7,i,2,2,14,5,
Cc1nnc(C)n1N,9,-2,5,i,-2,-1,-7,-15,
CC1CCCN(CCCOc2ccc(Br)cc2Cl)C1 (stereo not given),-6,-20,4,i,2,4,194*,nt,
CCN(c1cccc(C)c1)S(=O)(=O)c1ccc2c(c1)NC(=O)CCS2,-4,-7,-2,i,-7,-1,-40,-26,
O=C(N1CCCCCC1)n1c(Cc2ccccc2)nc2ccccc21,13,-18,5,i,-3,-5,-7,34,
Cn1cnnc1SC1c2cccc3cccc(c23)C1NS(=O)(=O)c1ccc(Cl)cc1 (stereo not given),-1,-2,44,i,-1,-2,2,-11,
CNC(=O)c1ccc(CN(C)CC(=O)Nc2ccccc2C(=O)NC2CC2)cc1,-3,nt,nt,nt,2,7,14,-12,
O=C(NN=C1CCCCCC1)c1ccncc1,-4,-10,11,i,-9,7,10,-18,
O=C(Cn1cc(/C=N/O)c2ccccc21)N1CCOCC1,-13,-2,-3,i,-3,2,2,-6,
CCOCCCNc1nc2c([nH]1)c(=O)n(C)c(=O)n2C,nt,-2,2,i,3,0,-4,-15,
COc1cccc(NC(=O)COc2coc(CN3CCN(c4ccccc4)CC3)cc2=O)c1,nt,nt,nt,i,0,-13,-2,4,
CCCC(=O)Nc1cccc(NC(=O)c2ccc3c(c2)OCO3)c1,-28,0,0,i,1,4,nt,-21,
Cc1ccc(NC(=O)CSc2nnc(C3CC3)n2CC2CCCO2)c(C)c1 (stereo not given),-5,-9,-4,i,-4,1,6,5,
O=C(Cn1cc2c(n1)CCCC2)NCc1ccccn1,-14,11,0,i,3,4,16,-17,
CCCN1CCN(C(=O)C2CCCN(c3ncnc4c3nc3n4CCCCC3)C2)CC1 (stereo not given),6,-5,-9,i,3,5,8,-6,
CCCc1nc2ccc(C)cn2c1Cc1ccccc1,-14,nt,nt,nt,-4,4,nt,73,
O=C(Cn1nnc(-c2ccc(F)cc2)n1)OCC(=O)c1ccccc1,6,1,3,i,-3,1,-6,nt,
CCOC(=O)c1c(-c2ccccc2)csc1NC(=O)CSc1nncs1,30,-4,80*,i,2,-11,-12,nt,eIF4H FP inh retest=44;PABP FP inh retest=64*
CCSc1nc2c(c(=O)[nH]1)C(c1cccnc1)C(C(=O)OC)=C(C)N2 (stereo not given),nt,-4,4,i,0,4,1,-5,
Cn1c(=O)[nH]c(NCCc2ccc(O)cc2)c([N+](=O)[O-])c1=O,-3,nt,nt,i,-3,-2,3,nt,
CC(C)(C)OC(=O)[C@H](NC(=O)OCc1ccccc1)c1ccccc1,8,nt,nt,nt,6,-8,6,17,
Clc1ccccc1OCCNc1nc(NCC2CC2)nc2ccsc12,40,nt,nt,nt,7,-17,nt,-16,
CCCNC(=O)CS(=O)Cc1nc(-c2ccccc2C)oc1C (stereo not given),3,9,7,i,3,7,-2,-15,
CC(C)CCN1C(=O)c2ccc(C(=O)Nc3cc(C(=O)O)cc(C(=O)O)c3)cc2C1=O,-2,0,2,i,-4,-4,nt,1,
CS(=O)(=O)N1CCc2cc(C(=O)Nc3ccc(O)cc3)ccc21,-2,1,4,i,8,1,-1,-11,
CN=C1S/C(=C\c2ccc(O)c(Br)c2)C(=O)N1C,-26,5,-2,i,-15,-7,35,-9,
COc1ccc(OCCC(=O)Nc2ccc(S(N)(=O)=O)cc2)cc1,-16,-8,6,i,2,3,-1,nt,
CN(C(=O)COC(=O)C1CCN(S(=O)(=O)c2ccc3c(c2)OCCO3)CC1)C1CCS(=O)(=O)C1 (stereo not given),nt,nt,nt,i,2,5,1,-14,
CN1CCC(N2CCN(C3CN(Cc4ccc(F)cc4)S(=O)(=O)C3)CC2)CC1 (stereo not given),-33,nt,nt,nt,2,2,nt,-9,
COc1cccc(/C=C(\C#N)c2nc3ccccc3[nH]2)c1OCC(=O)O,-9,0,13,i,-4,-3,-5,-9,
CC(=O)Nc1ccc(C(=O)NNC(=O)Cc2ccccc2)cc1,12,-7,5,i,1,0,2,-12,
Cn1nc(C(C)(C)C)cc1C(=O)N1CCCC(c2cc(C(=O)NCc3ccccc3)no2)C1 (stereo not given),-117,nt,nt,nt,-3,-18,nt,0,
Cc1ccc(C(=O)N/C(=C\c2cccc([N+](=O)[O-])c2)C(=O)NCc2ccncc2)cc1,nt,-5,4,i,7,7,nt,nt,
Cc1ccc(S(=O)(=O)n2nc(C)cc2N)cc1,-16,33,-14,i,-1,3,-2,nt,
O=C(O)COc1ccccc1/C=N/NC(=O)c1cccc(S(=O)(=O)N2CCOCC2)c1,-2,2.2*,79,i,-3,-4,-15,1,eIF4H FP inh retest=80*;PABP FP inh retest=39
Cc1cc([N+](=O)[O-])nn1CCCC(=O)Nc1cccc(Cl)c1Cl,-2,-10,15,i,1,-2,3,-13,
O=C(Cc1cccs1)N(Cc1ccco1)C1(C(=O)NC2CCCCC2)CCCCC1,73*,4,-1,i,-12,-9,-6,-12,
O=S(=O)(Cc1ccccc1)Nc1ccccc1,3,4,2,i,-4,-4,5,-3,
# Additional compounds.
SMILES,Env fusion inh,eIF4H FP inh,PABP FP inh,Rce1 inhib,MT1-MMP act inh,MT1-MMP act inh RFP,CSC inhib,Yeast UUG start,others
N[C@@H](Cc1ccccc1)c1nnc(SCc2ccccc2Cl)o1,-33,5,0,i,3,-1,-4,10,
O=C(NNC(=O)c1cccs1)c1ccc(S(=O)(=O)N2CCCCC2)cc1,6,-5,0,i,-1,-1,0,nt,
O=C(OCc1nc2ccccc2c(=O)[nH]1)c1cccs1,-37,3,5,i,-1,3,-16,3,
CC1(C(=O)NCc2ccc(C(F)(F)F)cc2)CCN1Cc1cc2ccccc2o1 (stereo not given),7,nt,nt,nt,-1,-8,nt,-6,
O=C(/C=C/c1ccc(Cl)cc1Cl)c1cccnc1,nt,7,-1,i,-2,-1,6,nt,
Cc1cnc(NC(=O)c2ccccn2)s1,-2,11,7,i,6,3,12,-56,
CCc1cc2c3c(c1)C1(C(=O)N3C(C)(C)C=C2C)C(C#N)=C(N)Oc2[nH]c(=O)[nH]c(=O)c21 (stereo not given),-43,-11,9,i,-3,-4,-8,4,
Cc1ccc(NC(=O)c2cc(=O)[nH]c3ccc(S(=O)(=O)N4CCOCC4)cc23)nc1,-27,nt,nt,i,0,4,-16,nt,
O=C(CCC1CCCCC1)NCCS(=O)(=O)N1CCN(c2ccccc2)CC1,2,nt,nt,i,4,-5,-8,-16,
COc1ccc(C2NC(=O)CCC2[N+](=O)[O-])c(OC)c1 (stereo not given),9,-8,-4,nt,-1,-2,-10,-29,
COc1cc2cc(CCCOC(=O)c3ccc(C(F)(F)F)cc3)oc(=O)c2cc1OC,17,nt,nt,nt,9,2,-24,6,
COc1ccc(Cc2noc(CN3CCCN(Cc4ccc(F)cc4)CC3)n2)cc1OC,7,-2,-5,i,-1,3,-8,nt,
CCCNC(=O)C/C(C)=N/NC(=O)C(=O)Nc1ccccn1,3,5,2,i,-1,1,-5,nt,
COc1ccccc1CNC(=O)C(=O)NCC1OCCN1S(=O)(=O)c1ccccc1 (stereo not given),nt,-7,3,i,3,0,-10,9,
COc1ccccc1NC(=O)COC(=O)c1ccc([N+](=O)[O-])s1,-9,-4,-8,i,-1,-10,-3,nt,
COc1ccccc1C(CNC(=O)c1ccc(C)c(S(=O)(=O)N2CCCCC2)c1)N(C)C (stereo not given),5,nt,nt,nt,2,-2,nt,-5,

# The list is partial, so the mix of outcomes need not match the whole.
